# Bioassay records from PubChem BioAssay.
# ALR H2O2 inh – inhibitors of human sulfhydryl oxidase ALR. purified ALR, DTT oxidation, H2O2 HRP-luminol luminescence. inhibition, % (concentration not given with the values). 290,000 compounds, 3.8% hits;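 active = mean and each replicate at 75% or more; inconclusive = only one of the two met; inactive = neither met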;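 also: stock transfer was 7.5 nL into about 7.5 µL; 0% = neutral wells and 100% = wells with inactivated enzyme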
# Target sequence (P55789 whole entry, looked up): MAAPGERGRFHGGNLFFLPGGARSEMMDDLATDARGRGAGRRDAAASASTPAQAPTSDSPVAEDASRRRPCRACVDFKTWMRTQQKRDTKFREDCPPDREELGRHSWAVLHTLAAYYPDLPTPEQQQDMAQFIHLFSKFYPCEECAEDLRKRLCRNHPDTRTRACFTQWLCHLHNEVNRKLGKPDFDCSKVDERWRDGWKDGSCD
# Ecoli growth – blocks Escherichia coli growth. 330,000 compounds, 0.21% hits. AID 1053175. OD600, 23 h; hits give low values. OD600 absorbance (test concentration not listed);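 active = OD600 absorbance below the run mean of sample wells minus 3.6 SD, in any replicate, cut at about 0.56 in these data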;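 also: stock transfer was 300 nL into about 60 µL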
# AF4-AF9 inh – blocks AF4 peptide binding to human AF9; 350,000 compounds, 0.47% hits; AlphaScreen, biotin-AF4 peptide binding to FLAG-AF9; inhibition, % at 10 µM; P42568; AID 651704;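 active = every replicate reaching a set inhibition limit, whatever the replicate mean, cut at about 25% in these data; inconclusive = mean inhibition reaches that limit but some replicates miss it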;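 also: 0% = plate neutral control median and 100% = total signal loss; the record names both 10 and 1 µM as test concentration; the first replicate is given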
# Target sequence (P42568 whole entry, looked up): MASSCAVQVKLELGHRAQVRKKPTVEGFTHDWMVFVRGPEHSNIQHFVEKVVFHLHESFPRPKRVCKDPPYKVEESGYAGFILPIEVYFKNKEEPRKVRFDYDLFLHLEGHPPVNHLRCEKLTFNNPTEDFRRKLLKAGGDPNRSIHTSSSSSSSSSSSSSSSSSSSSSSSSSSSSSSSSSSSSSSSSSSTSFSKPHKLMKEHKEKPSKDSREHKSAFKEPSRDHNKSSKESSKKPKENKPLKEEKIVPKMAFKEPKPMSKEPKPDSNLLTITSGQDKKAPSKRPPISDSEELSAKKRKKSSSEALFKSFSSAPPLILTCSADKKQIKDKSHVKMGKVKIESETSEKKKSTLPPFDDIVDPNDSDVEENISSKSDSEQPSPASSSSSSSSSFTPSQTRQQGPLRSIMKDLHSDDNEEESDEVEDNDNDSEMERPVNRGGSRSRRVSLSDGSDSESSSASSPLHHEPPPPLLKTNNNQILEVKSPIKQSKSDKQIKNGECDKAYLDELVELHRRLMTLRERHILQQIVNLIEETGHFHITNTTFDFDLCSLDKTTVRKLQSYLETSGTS
# Vif A3G – HIV-1 Vif–A3G interaction blockers – biochemical, TR-FRET, GST-Vif 1-94, biotin-A3G peptide, dose response retest, primary screen (AID 1117319); TR-FRET GST-Vif / biotin-A3G peptide binding; higher % means a stronger effect; test concentration not given here; strong numbers were not always called active; one-dose inhibition, %; IC50 in µM for titrated hits; 260,000 compounds, 0.57% hits;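 active = above the screen mean plus three standard deviations and confirmed in dose response; inconclusive = results disagree or hit not tested in dose response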;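 also: Vif residues 1-94 fused to GST binding biotinylated APOBEC3G peptide 110-148; 0% = full assay without inhibitor and 100% = GST in place of GST-Vif; retest series ran down from 100 µM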
# rRNA inh HTS – selective bacterial rRNA inhibition in E. coli; AID 720706; GFP signal change (wild-type ribosome), % (test concentration not listed); E. coli WT GFP vs humanized-ribosome RFP mutants, fluorescence, 24 h; hits give low values; DMSO median 0, no signal -100; 350,000 compounds, 1.6% hits;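 active = significant combined selectivity score with lowered wild-type GFP, culture density cut under 30%, mutant RFP and density less affected; inactive = any of these conditions unmet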; also: one replicate is shown; some compounds called inactive have numbers as strong as hits
# HNF4A DNA FP – change in binding of human HNF4 alpha to DNA; 360,000 compounds, 0.3% hits; activity change, % at 10 µM; HNF4a-FITC DNA binding, fluorescence polarization, 1 h; P41235; in the data active = activity change above about 30%, passing the limit was not always enough;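 also: controls were the assay level and a saturating level of protein; the project sought stronger binding though the title names inhibitors; some compounds called inactive have numbers as strong as hits; positive values seem to mean higher polarization but the record does not say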
# FGF22 binding – binders of recombinant human FGF22 by thermal shift; Q9HCT0; SYPRO orange fluorescence; percent of sucrose octasulfate shift, DMSO zero; calls only at 9.99 µM; 340,000 compounds, 1.5% hits; AID 651658;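 active = melting point raised past a set limit in the mean and every replicate; inconclusive = no clear call; three in four hits are not shown here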
# Target sequence (Q9HCT0 whole entry, looked up): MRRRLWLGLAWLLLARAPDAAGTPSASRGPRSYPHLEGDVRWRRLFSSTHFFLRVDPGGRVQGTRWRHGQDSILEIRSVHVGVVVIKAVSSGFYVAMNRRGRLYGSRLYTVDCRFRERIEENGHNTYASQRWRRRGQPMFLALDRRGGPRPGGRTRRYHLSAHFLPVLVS
# rRNA inh HTS OD600 – further read-out of rRNA inh HTS, marked with its call; OD600 change, %; measured here: OD600 growth;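 optical density of the mix in the first replicate; 0 = DMSO median and -100 = no signal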
# rRNA inh HTS RFP – also measured in rRNA inh HTS; calls as there; RFP signal change, %; measured here: RFP humanized mutant strains;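 first replicate; 0 = DMSO median and -100 = no signal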
# An asterisk follows results filed as active; i = inactive; u = inconclusive; x = not tested or not shown. Not all compounds are listed. The share of hits here may be higher or lower than overall.
ALR H2O2 inh,Ecoli growth,AF4-AF9 inh,Vif A3G,rRNA inh HTS,rRNA inh HTS OD600,rRNA inh HTS RFP,HNF4A DNA FP,FGF22 binding,molecule
x,0.72,x,-6%,x,x,x,-3.3,x,Cc1ccc(S(=O)(=O)N2CCCC(C(=O)NCc3ccccn3)C2)cc1 (centres undefined)
x,0.65,2.2,x,-33,-50,-5.6,1.7,i,COc1ccc(C(=O)NCC(C)(c2ccccc2)c2ccccc2)cc1S(=O)(=O)N1CCOCC1
x,x,2.6,x,1,-17,-2.5,x,i,C[C@@H]1CN([C@@H](C)CO)S(=O)(=O)c2ccc(C#CC3(O)CCCC3)cc2O[C@@H]1CN(C)C(=O)Nc1cccc(F)c1
x,x,-2.5,x,0,6,0.2,x,i,C[C@H](CO)N1C[C@H](C)[C@@H](CN(C)S(=O)(=O)c2cccs2)OCCCC[C@H](C)Oc2ccc(NS(=O)(=O)c3cn(C)cn3)cc2C1=O
5,0.67,x,2%,x,x,x,-1.4,x,COC(=O)[C@H](Cc1ccccc1)NC(=O)Nc1ccc(C)cc1
-6,0.75,-0.6,x,3,7,-0.8,1.1,i,O=C(CSc1nc(N2CCOCC2)nc(N2CCOCC2)n1)Nc1ccccc1F
x,x,-1.5,x,x,x,x,-1.0,i,Cc1ccc(S(=O)(=O)N2CCCOC2CNC(=O)C(=O)NCCc2ccco2)cc1 (centres undefined)
-2,0.67,-2.7,0%,-19,-8,-1.1,4.7,i,CCCCc1cc(=O)oc2c(C)c(OCC(=O)NCCN3CCOCC3)ccc12
51,0.71,-35,11%,4,6,0.0,0.0,i,CCOCCCNC(=O)CN1CCN(c2ccc(F)cc2)CC1
x,x,3.5,x,-4,-5,-0.3,x,i,O=C(C[C@@H]1CC[C@H]2[C@@H](COC[C@@H](O)CN2Cc2cc(F)ccc2F)O1)N[C@@H]1CCN(Cc2ccccc2)C1
84*,x,x,3%,x,x,x,-0.9,x,COc1cc(-c2nc3ccccn3c2/N=C/c2ccccc2)ccc1O
-28,0.66,-1.9,x,6,-4,-2.8,2.8,i,O=[N+]([O-])c1ccc(S(=O)(=O)NCC2COc3ccccc3O2)cc1 (centres undefined)
-6,0.65,x,7%,x,x,x,0.8,x,Cn1cccc1C(=O)NS(=O)(=O)c1ccccc1Cl
-2,0.71,x,-7%,x,x,x,2.4,x,CC1CCN(C(=O)Cn2cc(C(=O)C3CC3)c3ccccc32)CC1
x,x,-0.6,x,6,-3,0.7,x,i,CCCNC(=O)N1C[C@H](O)COC[C@H]2O[C@H](CC(=O)OC)CC[C@@H]21

# Next part; the last five above are carried over.
ALR H2O2 inh,Ecoli growth,AF4-AF9 inh,Vif A3G,rRNA inh HTS,rRNA inh HTS OD600,rRNA inh HTS RFP,HNF4A DNA FP,FGF22 binding,molecule
84*,x,x,3%,x,x,x,-0.9,x,COc1cc(-c2nc3ccccn3c2/N=C/c2ccccc2)ccc1O
-28,0.66,-1.9,x,6,-4,-2.8,2.8,i,O=[N+]([O-])c1ccc(S(=O)(=O)NCC2COc3ccccc3O2)cc1 (centres undefined)
-6,0.65,x,7%,x,x,x,0.8,x,Cn1cccc1C(=O)NS(=O)(=O)c1ccccc1Cl
-2,0.71,x,-7%,x,x,x,2.4,x,CC1CCN(C(=O)Cn2cc(C(=O)C3CC3)c3ccccc32)CC1
x,x,-0.6,x,6,-3,0.7,x,i,CCCNC(=O)N1C[C@H](O)COC[C@H]2O[C@H](CC(=O)OC)CC[C@@H]21
x,0.75,x,3%,x,x,x,4.3,x,Cc1cc(C)c(C#N)c(SCC(=O)N(C)C2CCCCC2)n1
3,0.65,26*,3%,-31,-37,-8.1,1.1,i,N#C/C(=C/c1ccccc1[N+](=O)[O-])c1nc(C2CC2)cs1
x,0.6,-1.7,x,-8,12,-1.9,2.8,i,O=C(CN1CCCCCC1)Nc1ccc([N+](=O)[O-])cc1Br
x,x,-11,x,-13,-35,2.5,x,i,CN1C(=O)c2cc(NS(C)(=O)=O)ccc2OC[C@@H]2O[C@H](CC(=O)NCc3ccc(-c4ccccc4)cc3)CC[C@@H]21
3,x,14,x,-1,-38,14,2.3,i,CCC(C)CCN1C(Nc2ccccc2)=NC[C@@H]1CC(C)C (some centres undefined)
-1,0.68,0.6,-6%,11,9,1.6,0.8,i,CCN(C(=O)COC(=O)c1cccn1C)C1CCS(=O)(=O)C1 (centres undefined)
x,x,-13,x,-1,-5,-0.6,x,i,CO[C@H]1CN(C)C(=O)c2cc(NC(=O)NC(C)C)ccc2OC[C@H](C)N(CC2CC2)C[C@H]1C
5,0.79,x,25%,x,x,x,1.4,x,CC(c1ccccc1)C1C(C#N)=C(N)OC2=C1C(=O)CCC2 (centres undefined)
97*,x,-0.6,u,8,5,6.5,-0.4,i,Cc1csc(/C(=N/OC(=O)c2ccco2)C(N)=O)n1
72,0.68,-4.6,-3%,-8,-9,-2.0,-1.5,x,COc1ccc(OC)c(-n2c(-c3cccc(C)c3)n[nH]c2=S)c1
-92,0.71,-1.7,u,11,7,0.9,-1.0,i,O=C(O)CCCn1cc(NC(=O)c2cc(F)c(F)cc2Cl)cn1
-1,0.62,x,-18%,x,x,x,3.3,x,Cc1nc(-c2ccccc2)nc2[nH]c(C(C)C)cc(=O)c12
x,x,-9.2,x,-3,-6,0.6,4.7,i,COc1ccc(-c2ccc(C(=O)NC3CCCCC3)c3occc23)c(C)c1
-15,0.7,1.0,2%,-28*,-19*,3.8*,0.9,i,O=C(CSc1nc2ccc([N+](=O)[O-])cc2[nH]1)NCCc1ccccc1
-3,0.64,-3.4,x,-6,-7,0.5,-1.2,i,COc1cccc(CNC(=O)CCCn2nc(C)c3c(C)n(-c4ccccc4)nc3c2=O)c1
x,x,-3.7,x,-1,2,-0.6,x,i,CCC(=O)N(C)C[C@@H]1Oc2ncc(C#Cc3cccnc3)cc2C(=O)N([C@H](C)CO)C[C@H]1C
x,0.71,x,u,x,x,x,3.2,x,CCOC(=O)N1CCC(NC(=O)c2ccc(OC)c(CN3CC(=O)N4CCCC4C3=O)c2)CC1 (centres undefined)
x,x,0.2,1%,-7,-4,-5.4,2.9,i,CCOC(=O)C1=C(Nc2ccccc2)CSC1
19,0.7,4.8,-2%,-7,4,-2.8,2.2,i,NC(=O)CC(NC(=O)c1ccccc1)c1ccc(NC2CCCCC2)c([N+](=O)[O-])c1 (centres undefined)
-24,x,x,21%,x,x,x,3.3,x,COc1ccccc1N/C=C(\C#N)c1nc2ccccc2[nH]1
x,x,-2.5,x,-2,-5,-0.8,x,i,C[C@H]1CN([C@@H](C)CO)C(=O)c2cc(NC(=O)c3ccncc3)ccc2O[C@@H]1CN(C)C(=O)Nc1cccc2ccccc12
-2,0.7,x,11%,x,x,x,8.3,x,O=C(Nc1ccc(N2CCCCC2)cc1)c1ccc(F)cc1
-5,0.68,-5.0,x,-7,-12,-1.2,12,i,COc1cccc(NC(=O)CCC2CCN(C(=O)C3CC=CCC3)CC2)c1 (centres undefined)
x,x,0.4,x,-3,3,1.2,x,i,C[C@H](CO)N1C[C@H](C)[C@H](CN(C)C(=O)NC2CCCC2)OCc2cnnn2CCCC1=O
-8,0.74,0.7,x,8,6,-1.1,-4.6,i,O=C(CN1CCN(S(=O)(=O)c2ccc(F)cc2)CC1)NC1CC1
3,0.69,-1.3,x,-4,-4,-2.3,1.0,i,O=C(CCC(=O)c1ccccc1)Nc1ccc(C(=O)O)cc1
4,0.64,1.8,x,9,3,2.5,0.8,i,CCOc1ccc(NC(=O)c2cc(S(=O)(=O)N3CCOCC3)cn2C)cc1
-12,0.7,2.1,-5%,-7,-7,0.8,2.6,x,Cc1ccc(NC(=O)c2cccc(OCc3c(C)noc3C)c2)cc1S(=O)(=O)Nc1ccccc1Cl
x,0.63,0.9,0%,-9,-35,0.4,-6.1,i,COc1ccc(NC(=O)CN(C)C(=O)c2ccccc2CCc2ccccc2)cc1
-1,0.65,-6.3,x,-29,-57,-1.2,-3.6,i,COC(=O)c1cccc(NC(=O)c2cc3ccccc3o2)c1
x,0.7,x,15%,x,x,x,1.0,x,COc1ccc(OC)c(-n2c(C)nc3cc(C(=O)O)ccc32)c1
-2,0.72,-0.7,3%,9,9,0.7,-1.7,i,Cc1cccc(S(=O)(=O)NCCc2cn3ccccc3n2)c1
x,x,0.0,x,1,-4,2.5,x,i,Cc1ccc(S(=O)(=O)N[C@H]2CC[C@H](CC(=O)N3CCN(c4ccccc4)CC3)O[C@@H]2CO)cc1
-4,x,6.6,1%,3,7,4.5,-0.8,i,CC(C)(C)NC(=O)C(c1ccncc1)N(Cc1ccco1)C(=O)c1ccc(-c2ccccc2)[nH]1 (centres undefined)
-1,0.7,2.3,2%,-6,-4,1.1,4.6,i,COc1ccc(C(=O)c2cnc(C(C)C)n2C)cc1
-6,0.69,0.8,-6%,1,0,-3.3,-1.6,i,Cc1ccc(S(=O)(=O)N2CCN(C(=O)CSc3ncn[nH]3)CC2)c(C)c1
10,0.69,x,22%,x,x,x,-5.0,x,O=C(NCc1ccco1)c1cc2ccc(O)cc2oc1=O
-6,0.6,x,26%,x,x,x,1.3,x,O=C(Cn1cc([N+](=O)[O-])cn1)N1CCc2ccccc21
x,x,-0.4,x,0,-5,-3.6,x,i,Cc1ccc(S(=O)(=O)N[C@@H]2CC[C@@H](CC(=O)NCCc3ccncc3)O[C@H]2CO)cc1
x,0.67,-1.2,x,0,10,0.7,-1.5,i,CC(NC(=O)CN1C(=O)NC2(CCc3ccccc32)C1=O)c1ccc2c(c1)OCCO2 (centres undefined)
x,x,-2.3,x,7,18,-1.1,-1.9,i,CCOC(=O)Cc1ccc(Nc2nc3cc(-c4sccc4C)sc3c(=O)n2C)cc1
0,0.71,x,-5%,x,x,x,-0.3,x,O=C(NC1CCS(=O)(=O)C1)N1CCCCC1 (centres undefined)
x,x,-0.4,x,9,6,-2.7,x,i,C[C@@H]1CN([C@@H](C)CO)S(=O)(=O)c2ccc(C3=CCCC3)cc2O[C@@H]1CN(C)C(=O)CN(C)C
-4,0.77,x,4%,x,x,x,2.5,x,COc1nc(-c2cccs2)cc(-c2ccc(C)cc2)c1C#N
0,0.68,x,19%,x,x,x,1.1,x,O=C(Nc1ccc(F)cc1)N1CCN(c2nc3ccccc3s2)CC1
x,x,0.8,x,-5,-9,0.8,x,i,C[C@H]1CN([C@@H](C)CO)C(=O)c2cccc(NC(=O)c3ccc(-c4nccs4)cc3)c2O[C@H]1CN(C)Cc1ccccc1
-3,0.7,0.5,x,5,3,0.1,-1.8,i,NC(=O)c1ccc(NC(=O)Cc2ccc(S(=O)(=O)N3CCCCC3)cc2)cc1
-1,0.71,1.6,x,-15,-20,-1.4,2.5,i,COC(=O)c1cc(S(=O)(=O)NCCc2ccc(Cl)cc2)c[nH]1
x,0.68,-1.4,x,-2,-14,1.5,4.6,i,Cc1ccc(NC(=O)CN(C)C(=O)c2cccc(S(=O)(=O)NCc3cccs3)c2)cc1
-4,0.72,-2.1,-8%,22,13,3.6,0.7,i,CC1CCCCC12NC(=O)N(CC(=O)NCc1ccc3c(c1)OCO3)C2=O (centres undefined)
